Vif A3G – inhibitors of Vif binding to APOBEC3G peptide, primary screen, biochemical, TR-FRET, GST-Vif 1-94, biotin-A3G peptide, dose response retest (AID 1117319) | Virion infectivity factor (Human immunodeficiency virus type 1 group M subtype B (isolate … | 260,000 tested, 0.57% active | TR-FRET GST-Vif / biotin-A3G peptide binding; higher % means a stronger effect; test concentration not given here; strong numbers were not always called active | inhibition, %, or IC50 in µM where a hit was titrated;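 active = above the screen mean plus three standard deviations and confirmed in dose response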;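 also: Vif residues 1-94 fused to GST binding biotinylated APOBEC3G peptide 110-148; 0% = full assay without inhibitor and 100% = GST in place of GST-Vif; retest series ran down from 100 µM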
ALR inh – inhibitors of human ALR sulfhydryl oxidase, primary screen, biochemical, H2O2 detection, HRP-luminol luminescence, single point. inhibition, % (concentration not given with the values). purified ALR, DTT oxidation. 290,000 tested, 3.8% active. FAD-linked sulfhydryl oxidase ALR (Homo sapiens), P55789. AID 485317, 2010;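 active = mean and each replicate at 75% or more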;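 also: stock transfer was 7.5 nL into about 7.5 µL; 0% = neutral wells and 100% = wells with inactivated enzyme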
Target sequence (P55789 whole entry, looked up): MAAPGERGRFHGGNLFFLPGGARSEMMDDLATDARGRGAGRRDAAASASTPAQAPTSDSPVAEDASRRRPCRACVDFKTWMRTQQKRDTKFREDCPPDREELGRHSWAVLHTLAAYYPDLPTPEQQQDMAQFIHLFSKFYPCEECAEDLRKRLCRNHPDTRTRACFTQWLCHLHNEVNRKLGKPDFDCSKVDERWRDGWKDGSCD
E coli growth – E. coli growth inhibition, primary screen, OD600 | Escherichia coli growth, 23 h; stronger effect = lower value | OD600 absorbance (test concentration not listed) | 330,000 tested, 0.21% active;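 active = OD600 absorbance below the run mean of sample wells minus 3.6 SD, in any replicate, cut at about 0.56 in these data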;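 also: stock transfer was 300 nL into about 60 µL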
Ecoli rRNA inh – reduced GFP signal of wild-type E. coli, primary screen, bacterial rRNA inhibitor project, GFP/RFP fluorescence, OD600, single point. E. coli WT GFP vs humanized-ribosome RFP mutants, 24 h; stronger effect = lower value; DMSO median 0, no signal -100. 350,000 tested, 1.6% active. GFP signal change (wild-type ribosome), % (no concentration beside the values). AID 720706, 2013;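 active = significant combined selectivity score with lowered wild-type GFP, culture density cut under 30%, mutant RFP and density less affected; inactive = any of these conditions unmet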; also: one replicate is shown; some compounds called inactive have numbers as strong as hits
AF4-AF9 inh – inhibitors of AF4 peptide binding to AF9, primary screen, biochemical, AlphaScreen, biotin-AF4 peptide, FLAG-AF9, single point. Protein AF-9 (Homo sapiens), P42568. inhibition, % at 10 µM. 350,000 tested, 0.47% active. AID 651704, 2012;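 active = every replicate reaching a set inhibition limit, whatever the replicate mean, cut at about 25% in these data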;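 also: 0% = plate neutral control median and 100% = total signal loss; the record names both 10 and 1 µM as test concentration; the first replicate is given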
Target sequence (P42568 whole entry, looked up): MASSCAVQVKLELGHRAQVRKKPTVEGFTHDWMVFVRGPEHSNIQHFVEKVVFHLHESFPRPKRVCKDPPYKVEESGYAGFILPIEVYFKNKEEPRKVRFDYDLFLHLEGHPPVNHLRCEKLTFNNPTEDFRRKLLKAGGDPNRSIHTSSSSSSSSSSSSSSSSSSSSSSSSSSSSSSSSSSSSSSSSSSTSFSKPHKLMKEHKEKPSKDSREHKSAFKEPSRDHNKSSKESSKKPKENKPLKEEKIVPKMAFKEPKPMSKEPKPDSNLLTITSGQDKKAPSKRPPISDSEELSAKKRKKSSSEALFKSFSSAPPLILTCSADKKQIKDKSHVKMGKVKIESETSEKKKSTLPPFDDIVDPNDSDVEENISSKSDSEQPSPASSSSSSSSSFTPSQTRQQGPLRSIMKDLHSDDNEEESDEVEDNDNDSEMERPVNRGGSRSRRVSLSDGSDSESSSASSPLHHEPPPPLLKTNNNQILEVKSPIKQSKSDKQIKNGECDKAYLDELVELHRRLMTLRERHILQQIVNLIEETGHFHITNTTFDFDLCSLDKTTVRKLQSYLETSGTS
FGF22 binding – binders of human FGF22 protein, primary screen, FGF22 synaptogenesis inhibitor project, biophysical, thermal shift, single point | Fibroblast growth factor 22 (Homo sapiens), Q9HCT0 | recombinant FGF22 thermal shift, SYPRO orange fluorescence; percent of sucrose octasulfate shift, DMSO zero | calls only at 9.99 µM | 340,000 tested, 1.5% active;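 active = melting point raised past a set limit in the mean and every replicate; three in four hits are not shown here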
Target sequence (Q9HCT0 whole entry, looked up): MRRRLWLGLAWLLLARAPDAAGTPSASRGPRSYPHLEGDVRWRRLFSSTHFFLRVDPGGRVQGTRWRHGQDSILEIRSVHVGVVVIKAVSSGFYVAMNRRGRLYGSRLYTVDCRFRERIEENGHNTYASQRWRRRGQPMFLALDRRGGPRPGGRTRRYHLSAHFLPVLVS
HNF4A DNA FP – change in binding of human HNF4A to DNA, primary screen, biochemical, fluorescence polarization, FITC-DNA; Hepatocyte nuclear factor 4-alpha (Homo sapiens), P41235; 1 h; activity change, % at 10 µM; 360,000 tested, 0.3% active; AID 1224865, 2016; in the data active = activity change above about 30%, passing the limit was not always enough;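 also: controls were the assay level and a saturating level of protein; the project sought stronger binding though the title names inhibitors; some compounds called inactive have numbers as strong as hits; positive values seem to mean higher polarization but the record does not say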
Ecoli rRNA inh OD600 – second read-out of Ecoli rRNA inh, no call of its own (marks repeat the call); OD600 change, %; measured here: OD600 growth;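 optical density of the mix in the first replicate; 0 = DMSO median and -100 = no signal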
Ecoli rRNA inh RFP – recorded beside Ecoli rRNA inh, whose call it bears; RFP signal change, %; measured here: RFP humanized mutant strains;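 first replicate; 0 = DMSO median and -100 = no signal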
The depositor's hits bear a star; i = inactive; . = no result given. An excerpt, so the mix of outcomes need not match the whole.

Second line of a record: FGF22 binding, Ecoli rRNA inh RFP, ALR inh, Ecoli rRNA inh, Ecoli rRNA inh OD600, HNF4A DNA FP, E coli growth, Vif A3G, AF4-AF9 inh
> CCCCN(C=O)c1c(CC)nc2ccc(C(=O)Nc3cc(-c4ccccc4)ccc3OC)cn12
→ i, 1.3, ., -2, 0, 1.6, ., ., -0.4
> COCC(=O)N1CCCC(C(=O)c2ccc(C(F)(F)F)cc2)C1 (stereo not drawn)
→ i, 4.3, ., 12, 6, 0.2, 0.66, ., 2.1
> CCOC(CNC(=O)c1ccc2nc(N3CCC(C)CC3)sc2c1)OCC
→ ., ., -3, ., ., -0.9, 0.7, -5%, .
> CCCCc1c(-c2cccc(OC)c2)ncn1CCc1ccccc1OC
→ i, -18, ., -46, -78, -6.2, ., ., 5.4
> O=C(Cc1cccs1)Nc1ccccc1NC(=O)Cc1cccs1
→ ., ., -1, ., ., -2.9, 0.71, -1%, .
> O=C(NC1CCC(c2ccccc2)CC1)c1cccnc1 (stereo not drawn)
→ i, 13, 2, 2, 1, -1.3, 0.65, 1%, 3.4
> Cc1cccc(N2C(=O)SC(N(CC(=O)O)c3cccc(C)c3)C2=O)c1 (stereo not drawn)
→ i, 2.8, 99*, 3, 3, 4.7, 0.71, 17%, -1.5
> CCCN(CC(=O)Nc1cc(Cl)ccc1Cl)C(=O)/C=C/c1ccco1
→ ., ., -1, ., ., 0.6, 0.7, 14%, .
> CC(NC(=O)Cn1cccc1C(=O)c1ccccc1)c1ccccc1 (stereo not drawn)
→ i, 0.7, -1, -5, 1, 1.7, 0.72, -6%, -1.4
> CCN(CC(=O)Nc1cc(S(=O)(=O)N2CCOCC2)ccc1C)Cc1ccccc1
→ i, 1.6, 0, -6, -3, -1.1, 0.69, ., 5.5
> CCN1CCN(S(=O)(=O)c2c[nH]c(C(=O)OC)c2)CC1
→ i, -4.0, ., 9, 9, 2.4, 0.79, ., 1.1
> O=C(C[C@H]1CC[C@@H](NC(=O)CN2CCOCC2)[C@H](CO)O1)NCCc1ccncc1
→ i, -0.7, ., 4, 4, ., ., ., -1.4
> COc1cccc(NC(=O)COC(=O)C2CC2)c1
→ i, 2.1, ., 18, 16, -1.5, 0.65, ., -0.2
> COc1ccc(CN2C[C@H](C)[C@@H](OC)CN(C)C(=O)c3cc(NC(=O)c4nc5ccccc5s4)ccc3OC[C@@H]2C)cc1
→ i, 5.7, ., -2, -16, ., ., ., 0.6
> Cc1noc(NS(=O)(=O)c2ccc(NC(=O)CCC3CCCC3)cc2)c1C
→ ., ., 5, ., ., 0.2, 0.75, 1%, .
> Cc1ccc2nc(-c3ccc(NC(=O)CSc4ccccc4)cc3)[nH]c2c1
→ ., ., 0, ., ., 9.4, 0.67, -9%, .
> NNC(=O)c1ccc(COc2ccc3c(c2)CCC3)o1
→ ., ., -7, ., ., -1.3, 0.7, 20%, .
> C[C@@H]1CN([C@H](C)CO)C(=O)c2cccc(NS(C)(=O)=O)c2O[C@H]1CN(C)C(=O)NC1CCCCC1
→ i, 1.0, ., -1, 7, ., ., ., 0.0
> O=C(Cc1ccccc1)Nc1ccc2[nH]ncc2c1
→ i, 2.4, -21, 23, 17, 2.1, 0.69, ., 0.8
> C[C@H](CO)N1C[C@H](C)[C@@H](CN(C)Cc2ccc(C(F)(F)F)cc2)Oc2ccc(NC(=O)CCCN(C)C)cc2C1=O
→ i, 0.3, ., 1, 6, ., ., ., 7.5
> CCOc1ccc(-n2nc3c(=O)n(CCN4CCCCC4)nc(C)c3c2C)cc1
→ i, -14, 2, 13, 1, 0.3, 0.64, 7%, -0.5
> Cc1ccccc1C(=O)NN1CCOCC1
→ ., ., -17, ., ., -3.3, 0.67, 3%, .
> COC(=O)C1=C(C)N(C)C(C)=C(C(=O)OC)C1c1ccc(C(=O)OC)cc1
→ ., ., ., ., ., -1.8, 0.81, -10%, .
> Cc1ccc(O)c(CN(C)Cc2cc(C)ccc2O)c1
→ i, ., ., ., ., 0.3, 0.7, -2%, 11
> CCCc1nc(-c2ccccc2)c(-c2ccc(OC)c(OC)c2)c(=O)[nH]1
→ i, 0.1, -10, 1, 5, -2.7, 0.69, -6%, -0.3
> Cc1nn(-c2ccccc2)c(C)c1C(=O)OCC(=O)Nc1ccccc1F
→ i, 1.2, 0, -10, -8, 1.7, 0.66, 1%, 6.1
> O=C(Cn1c(SCC(=O)N2CCCc3ccccc32)nc2ccccc21)N1CCCC1
→ i, 5.7, ., -10, -3, -1.9, 0.69, 17%, -20
> CO[C@@H](C(=O)N(C)C[C@@H]1OCc2ccccc2-c2c(n(C)c3ccccc23)C(=O)N([C@@H](C)CO)C[C@@H]1C)c1ccccc1
→ i, -0.1, ., -2, -5, ., ., ., 0.7
> CS(=O)(=O)c1ccc(N2CCN(c3ccccn3)CC2)c([N+](=O)[O-])c1
→ i, 1.9, -3, -9, 1, 1.2, 0.65, 25%, 4.6
> Cc1ccc(/C=C2\SC(N3CCCCC3)=NC2=O)cc1
→ i, -1.9, -3, -14, -4, 1.6, 0.65, ., 5.8
> Cc1c(Cl)cccc1NC(=O)NCc1ccc(C)n1C
→ i, 3.1, -8, 19, 10, -0.8, 0.65, -5%, 2.7
> O=C(C1=NN(c2ccccc2)C2C(=O)N(c3ccc(Cl)cc3)C(=O)C12)c1ccccc1 (stereo not drawn)
→ ., ., -28, ., ., 4.9, 0.69, ., .
> O=C(C[C@H]1CC[C@H]2[C@@H](COC[C@H](O)CN2CC2CCCCC2)O1)NCC1CC1
→ i, -1.7, ., 5, 19, ., ., ., -3.3
> O=C(Cc1ccccc1)NNc1ccc2ccccc2c1
→ i, -2.6, 9, -13, -24, 0.0, ., -7%, -1.9
> O=C(NNC(=O)c1cc2cc(OC(F)(F)F)ccc2[nH]1)c1ccc(Cl)cc1
→ i, 0.8, -16, -11, 11, -1.8, 0.65, ., 0.2
> O=C(NCC1CC1)[C@@H]1[C@@H](CO)[C@@H]2Cn3c(cccc3=O)[C@H]1N2C(=O)c1ccc(F)cc1
→ i, -2.6, ., 1, -3, ., ., ., -1.5
> Cc1ccc(NC(=O)CCN2C(=O)NC3(CCCC3)C2=O)cc1S(=O)(=O)N1CCOCC1
→ i, 1.3, ., 3, 3, -0.5, 0.69, ., -1.4
> Cc1cc(C)c(C#N)c(Nc2ccccc2F)n1
→ i, -2.4, -15, 3, -3, 0.2, 0.66, 1%, 1.2
> Cc1noc(C)c1NC(=O)N(C)C[C@H]1Oc2ccc(NC(=O)Nc3ccc(F)cc3)cc2C(=O)N([C@@H](C)CO)C[C@H]1C
→ i, 0.9, ., 1, -1, ., ., ., -13
> COc1cc(C(=O)Nc2nnc(CC(C)C)s2)c([N+](=O)[O-])cc1OC
→ i, -3.9, -19, 1, -3, -0.9, 0.68, ., -1.3
> COc1ccccc1/C=C/C(=O)c1ccccc1
→ i, 2.1, 11, -1, -2, 2.4, ., 3%, -0.6
> O=C(O)c1sccc1Oc1ccc(F)cc1[N+](=O)[O-]
→ ., ., 16, ., ., -0.7, ., 7%, .
> O=C(CSc1nnc(CNC(=O)c2ccco2)o1)Nc1cccc(Cl)c1
→ i, -1.6, -3, 4, 6, 3.0, 0.67, ., -0.3
> COC(=O)C1C(c2ccc(OC)cc2)C(C(=O)OC)S(=O)(=O)C(CCN2CCCCC2)S1(=O)=O (stereo not drawn)
→ i, 0.3, -1, 6, 2, 2.2, 0.69, 9%, -1.7
> COC(=O)Nc1ccc(S(=O)(=O)N2CCCC(C(=O)N3CCCCC3)C2)cc1 (stereo not drawn)
→ i, -0.7, -1, 11, 2, -2.9, 0.63, -2%, 0.3
> CCN(c1ccccc1)S(=O)(=O)c1ccc(C(=O)OC(C)C(=O)NCCC2=CCCCC2)cc1 (stereo not drawn)
→ ., ., -1, ., ., 1.1, 0.71, -2%, .
> CCOC(=O)C(=O)N1CCN(c2ccccc2OC)CC1
→ i, 4.7, 4, 7, 12, -2.5, ., 23%, -7.8
> COc1ccccc1-c1c(C(F)(F)F)oc2cc(OC(=O)c3cccc([N+](=O)[O-])c3C)ccc2c1=O
→ ., ., -5, ., ., 1.5, 0.76, 31%, .
> FC(F)(F)c1cc(-c2ccco2)nc(-n2cnc3ccccc32)n1
→ ., ., -6, ., ., -1.1, 0.79, 8%, .
> COc1cccc(N2[C@@H](CC(=O)O)c3cc(C(F)(F)F)ccc3S2(=O)=O)c1
→ i, 0.6, -1, 4, 3, -1.7, ., ., .
> CCN(CC)CCNC(=O)c1ccc(NC(=O)c2ccc(-n3cncn3)c([N+](=O)[O-])c2)cc1
→ i, 0.7, ., -3, 12, 0.4, ., 12%, 0.2
> COC(=O)c1c(NC(=O)c2ccccc2F)sc2c1C(C(=O)OC)CC2 (stereo not drawn)
→ i, -0.8, 2, 5, 2, 1.1, 0.67, ., 0.4
> Cc1ccc(N(CC(=O)NCc2ccco2)C(=O)CCC(=O)Nc2ccccn2)cc1C
→ ., ., -18, ., ., -0.6, 0.72, 0%, .
> O=C(O)C1CCN(C(=O)c2ccc(Cl)cc2)CC1
→ ., ., -8, ., ., -1.1, 0.82, 6%, .
> COc1cc(C(=O)NCCC(=O)N2CCN(C)CC2)cc(OC)c1OC
→ i, -1.1, -3, 6, 0, 1.9, 0.68, 2%, 0.7
> C[C@@H]1CN([C@@H](C)CO)S(=O)(=O)c2ccc(-c3cncnc3)cc2O[C@H]1CN(C)Cc1cncnc1
→ i, -3.6, ., -3, -3, ., ., ., 0.6
> CC(=O)OCn1nnc2ccccc2c1=O
→ ., ., -3, ., ., 5.7, 0.7, 21%, .
> CN(/N=C/c1ccc(-c2ccc([N+](=O)[O-])cc2)o1)c1ccccc1
→ i, 0.2, 3, 29, 20, 48*, ., ., -3.0
> O=C(CSc1nnc(Cc2ccccc2)c(=O)[nH]1)Nc1ccccc1
→ i, -3.7, -3, -6, -7, 4.1, 0.69, 9%, 5.8
> Cc1nc(N/N=C/c2ccc(O)cc2)c2cnn(-c3ccccc3)c2n1
→ ., -5.7, 31, -13, -27, 1.5, ., 8%, -13
> NC(=O)C1=NOC(CNc2ncc(C(F)(F)F)cc2Cl)C1 (stereo not drawn)
→ ., ., 0, ., ., 0.7, 0.68, 1%, .
> CCN(CC)S(=O)(=O)c1cccc(NC(=O)c2ccccc2Br)c1
→ i, -5.0, -13, -17, -21, -3.5, 0.68, -2%, -0.1
> CC(C)CC(=O)Nc1c2c(nn1-c1ccc(F)cc1)CS(=O)C2 (stereo not drawn)
→ i, 0.1, -1, 2, 20, -1.0, ., ., 0.5

By substructure, the entries above containing a COOH group
Second line of a record: FGF22 binding, Ecoli rRNA inh RFP, ALR inh, Ecoli rRNA inh, Ecoli rRNA inh OD600, HNF4A DNA FP, E coli growth, Vif A3G, AF4-AF9 inh
> Cc1cccc(N2C(=O)SC(N(CC(=O)O)c3cccc(C)c3)C2=O)c1 (stereo not drawn)
→ i, 2.8, 99*, 3, 3, 4.7, 0.71, 17%, -1.5
> O=C(O)c1sccc1Oc1ccc(F)cc1[N+](=O)[O-]
→ ., ., 16, ., ., -0.7, ., 7%, .
> COc1cccc(N2[C@@H](CC(=O)O)c3cc(C(F)(F)F)ccc3S2(=O)=O)c1
→ i, 0.6, -1, 4, 3, -1.7, ., ., .
> O=C(O)C1CCN(C(=O)c2ccc(Cl)cc2)CC1
→ ., ., -8, ., ., -1.1, 0.82, 6%, .

High-throughput results deposited in PubChem BioAssay by several laboratories.
